Screening data: PubChem, National Center for Advancing Translational Sciences (NCATS)
Cruzain inh noDet: cruzain (T. cruzi) inhibition without detergent | Potency, µM, without a hit: max response, negative = inhibition, most hits filed as inhibitors | purified cruzain, Z-FR-AMC fluorescence, no detergent | P25779 | 200,000 compounds, 2.3% hits | AID 1476; active = well fitted curve in the direction sought with a large enough effect; inconclusive = small, poorly fitted or top-dose-only effect, or another doubt; inactive = no such curve, though single readings can be large; an effect the other way counts as inactive or inconclusive;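 also: plate controls were enzyme without inhibitor for no effect and buffer without enzyme for full effect; nearly all actives have a fitted effect of over 40% in size; top concentration of the series not given in the record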
Target sequence (P25779 123-467 limits assumed): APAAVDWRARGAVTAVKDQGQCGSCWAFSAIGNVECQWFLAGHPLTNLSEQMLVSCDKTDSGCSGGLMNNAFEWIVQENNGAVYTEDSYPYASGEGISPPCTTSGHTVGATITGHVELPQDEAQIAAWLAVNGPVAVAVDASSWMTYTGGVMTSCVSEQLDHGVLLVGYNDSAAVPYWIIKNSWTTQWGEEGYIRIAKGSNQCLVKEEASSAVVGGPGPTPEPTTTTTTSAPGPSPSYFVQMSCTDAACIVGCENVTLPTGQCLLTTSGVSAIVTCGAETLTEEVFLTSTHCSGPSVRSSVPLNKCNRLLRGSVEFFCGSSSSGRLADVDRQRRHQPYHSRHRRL
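Purified cruzain at 1.5 nM, pre-incubated 15 min with compound at room temperature in 100 mM sodium acetate pH 5.5, 5 mM DTT, 0.00005% Triton X-100. Reaction started with 2 uM Z-FR-AMC; AMC fluorescence increase over 60 s gives rate.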
Marburg entry inh: inhibitors of Marburg virus binding or cell entry; AID 540276; 300,000 compounds, 1.8% hits; Marburg virus pseudotyped entry inhibition, cell reporter; control for the full effect not named in the record; about a third of the inactives were read at about 46 µM; Potency, µM (titrated, usually from 37.8 µM), without a hit: at the highest dose activity change, negative = inhibition, usual class: inhibitors; active = well fitted inhibition curve with a large enough effect; inconclusive = small, poorly fitted or top-dose-only effect, or effect the other way; inactive = flat fitted curve, though single readings scatter; tested in HEK293 cells; about a fifth of its hits are not listed in these tables; also: % is scaled to controls: 0 for no effect and ±100 for the full control effect; luciferase read-out
StopGo reporter: FMDV 2A StopGo reporter, luciferase signal. human cells with a luciferase reporter of 2A StopGo recoding; control for the full effect not named in the record. Potency, µM (doses to about 57.9 µM), for the others: at the top dose signal change, negative = less light. 410,000 compounds, 1.2% hits. AID 1159524; active = well fitted falling curve with a large enough effect; inconclusive = small, poorly fitted or top-dose-only effect; inactive = no such curve, though single readings can be large or run the other way; tested in HEK293T cells; also: % is scaled to controls: 0 for no effect and ±100 for the full control effect; nearly all actives have a fitted effect of over 45% in size; luciferase light after 4 h
RE007 growth inh: less growth of the S. pombe RE007 Vpr strain; 360,000 compounds, 0.21% hits; Potency, µM (highest dose often 92.2 µM), without a hit: at the highest dose activity change, negative = less growth; S. pombe RE007 Vpr strain, BacTiter-Glo ATP luminescence, 24 h; control for the full effect not named in the record; active = well fitted falling curve with a large enough effect; inconclusive = small, poorly fitted or top-dose-only effect; inactive = no such curve, though single readings can be large or run the other way;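 also: % is scaled to controls: 0 for no effect and ±100 for the full control effect; nearly all actives have a fitted effect of over 50% in size; the assay follows cell death caused by Vpr and the record does not say whether a fall means rescue or toxicity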
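Fission yeast strain RE007, carrying one chromosomally integrated HIV-1 vpr copy, was seeded at OD 0.01 in PMG+AL medium with 23 nL pinned compound. After 24 h at 30 °C and 99% humidity, viability was read by BacTiter-Glo luminescence.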
SARS PLpro yeast: blocks SARS-CoV papain-like protease in a yeast assay; S. cerevisiae expressing SARS-CoV PLpro, growth rescue; control for the full effect not named in the record; Potency, µM (doses to about 32.9 µM), inactives show at the top dose activity, positive = growth rescue; 330,000 compounds, 0.19% hits; AID 485353; also: 0% is about no effect; nearly all actives have a fitted effect of over 55% in size; growth read by luminescence after 48 h
Lassa entry inh: blocks Lassa virus binding to or entry into cells; Lassa virus pseudotype entry inhibition, cell reporter; control for the full effect not named in the record; Potency, µM (doses to about 37.9 µM), inactives show at the highest dose activity change, negative = inhibition, usual class: inhibitors; 300,000 compounds, 1.2% hits; AID 540256; active means well fitted inhibition curve with a large enough effect; inconclusive means small, poorly fitted or top-dose-only effect, or effect the other way; inactive means flat fitted curve, though single readings scatter; tested in HEK293 cells; also: % is scaled to controls: 0 for no effect and ±100 for the full control effect; nearly all actives have a fitted effect of over 50% in size; luciferase read-out
Cruzain inh Det: inhibitors of Trypanosoma cruzi cruzain with detergent; 200,000 compounds, 0.43% hits; purified cruzain, Z-FR-AMC fluorescence, 0.01% Triton; P25779; Potency, µM, without a hit: max response, negative = inhibition, usual class: inhibitors; active = well fitted curve in the direction sought with a large enough effect; inconclusive = small, poorly fitted or top-dose-only effect, or another doubt; inactive = no such curve, though single readings can be large; an effect the other way counts as inactive or inconclusive;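 also: plate controls were neutral wells for no effect and buffer without enzyme for full effect; nearly all actives have a fitted effect of over 40% in size; top concentration of the series not given in the record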
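Cysteine protease activity tested under reducing, mildly acidic conditions (100 mM sodium acetate pH 5.5, 5 mM DTT) plus 0.01% Triton X-100. Cruzain 1.5 nM; substrate Z-FR-AMC 2 uM; 15 min compound preincubation at room temperature.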
NS1 function inh: blocks influenza NS1 protein function; 270,000 compounds, 0.4% hits; Potency, µM (series often up to 46.1 µM), without a hit: top-dose activity, positive = more growth; S. cerevisiae slowed by influenza A NS1, growth recovery by OD600; also: actives are rising curves; nearly all actives have a fitted effect of over 50% in size
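S. cerevisiae expressing influenza A NS1, grown in glucose, washed, then diluted 1:100 into pH 6.0 -URA galactose medium with 23 nl compound. Growth recovery read as OD600; NS1-free strain serves as control.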
Active calls of the source: *; u = inconclusive; x = not tested or not shown; & = joins results of further samples; [ ] = another dose, or the depositor's remark. Unless noted, calls follow the shape of the dose curve; as a rule, active means well fitted rising curve with a large enough effect; inconclusive means small, poorly fitted or top-dose-only effect; inactive means no such curve, though single readings can be large or run the other way. Potency is read from the fitted curve at half-maximal effect. No enrichment for hits. About 4.7% of those tested had a hit in this group.

SMILES	Cruzain inh noDet	Marburg entry inh	StopGo reporter	RE007 growth inh	SARS PLpro yeast	Lassa entry inh	Cruzain inh Det	NS1 function inh
NS(=O)(=O)c1cccc(NC(=O)c2cccnc2Oc2ccccc2)c1	x	-19%[46.1 µM]	-18%	9%	1%	-29%[46.1 µM]	x	-3%
CCCCCCC(O)(c1ccc(OC)cc1)C(CN1CCOCC1)c1ccccc1 (stereo not given)	x	u	-30%	1%	-8%	u	x	2%
CCOc1ccccc1-c1cc(C(=O)Nc2ccc(C(=O)O)cc2)c2ccccc2n1	x	-11%[46.1 µM]	-12%	9%	-3%	20%[46.1 µM]	x	11%
COc1ccc(CN(C(=O)c2cnccn2)C(C(=O)NC(C)(C)C)c2cc(OC)c(OC)c(OC)c2)cc1 (stereo not given)	u	10%	-17%	7%	-4%	1%	0.2%	-3%
Cc1cccc(NC(=O)CSc2nc3c(c(=O)[nH]2)CN(Cc2ccc4c(c2)OCO4)CC3)c1C	1%	-8%[46.1 µM]	-16%	x	x	0%[46.1 µM]	-2.6%	x
COc1ccc(NC(=O)c2nc[nH]c2C(=O)N[C@@H](C)C(=O)OC(C)(C)C)cc1	x	x	6%	-5%	1%	x	x	-52%
COc1ccc(NC(=O)c2noc3c2CCCC3)cc1Cl	-11%	x	58%[activator]	x	x	u	-2.6%	x
CN(C(=O)CSc1nnn(C)n1)c1ccccc1	x	-3%[46.1 µM]	15%	4%	1%	0%[46.1 µM]	x	2%
CCOc1ccccc1NC(=O)Cn1c(=O)n(Cc2ccco2)c(=O)c2cccnc21	-4%	-3%[46.1 µM]	-2%	x	x	x	-0.5%	x
Cn1c(N)c(C(=O)COC(=O)[C@H](Cc2ccccc2)N2C(=O)c3ccccc3C2=O)c(=O)n(C)c1=O	u	-1%	-18%	6%	-10%	5%	-5.6%	-7%
COc1ccc2c(c1)CC/C(=C/c1ccccn1)C2=O	x	x	46%[activator]	u	-7%	x	x	-32%
Cn1c(=O)oc2cc(S(=O)(=O)NCCC(=O)NCc3ccccc3Cl)ccc21	x	14%[46.1 µM]	1%	2%	-1%	27%[46.1 µM]	x	-13%
CCCC1=Nc2cc(C(=O)NCCN3CCOCC3)ccc2Sc2ccccc21	x	u	-22%	9%	-1%	u	x	-7%
c1ccc(Cc2noc(CN3CCCC(CN4CCOCC4)C3)n2)cc1 (stereo not given)	x	-10%	-11%	-2%	0%	-1%	x	-1%
O=S(=O)(Nc1ncccn1)c1ccc(Cl)cc1	x	x	-17%	13%	-2%	x	x	1%
COc1ccc(N2CC(NC(=O)COc3ccccc3F)CC2=O)cc1OC (stereo not given)	-8%	x	-1%	x	x	15%[46.1 µM]	-1.9%	x
Cc1ccc(C)c(S(=O)(=O)NC(CCC(N)=O)C(=O)O)c1 (stereo not given)	-8%	7%	1%	37%	4%	10%	4.6%	-3%
CC1CCCN(C(=O)CN(C)S(=O)(=O)c2cccc3nsnc23)C1 (stereo not given)	x	x	0%	0%	0%	x	x	-1%
CCCCOc1ccccc1C(=O)NCCCC(=O)O	0%	-18%&-18%	-8%	-4%	3%	u	-1.3%	4%
CCOc1ccc(/C(O)=C2\C(=O)C(=O)N(CCN(C)C)C2c2cc(OC)ccc2OC)cc1Cl (stereo not given)	x	u	-8%	-1%	x	13%	x	9%
CC1CC(C)CN(CCC(=O)Nc2ccc(Br)cc2)C1 (stereo not given)	x	-30%	-20%	2%	0%	-15%	x	-3%
COC(=O)c1ccc(N2CCN(C)CC2)c(NC(=O)c2cccs2)c1	x	-9%[46.1 µM]	-2%	1%	9%	4%[46.1 µM]	x	-6%
O=c1nc2s/c(=C\c3ccco3)c(=O)n2nc1Cc1ccc(F)cc1	u	2%	-15%	-4%	-9%	4%	-7.9%	-156%
O=C(CC1CCCCC1)NC1CCCC1	0%	-3%[46.1 µM]	51%[activator]	-2%	0%	25%	2.1%	-10%
CCOC(=O)c1c(C)c(C(=O)NCc2ccc3c(c2)OCO3)c(C)n1CC	-9%	u	-17%	18%	-8%	-20%&-20%	-0.6%	-6%

The list goes on:
SMILES	Cruzain inh noDet	Marburg entry inh	StopGo reporter	RE007 growth inh	SARS PLpro yeast	Lassa entry inh	Cruzain inh Det	NS1 function inh
CN(CCN1CCc2ccccc2C1)Cc1nc(Cc2ccccc2F)no1	x	28%[46.1 µM]	-1%	-9%	0%	-27%	x	1%
CCOc1ccc(C(C)=O)cc1COC(=O)CN1C(=O)NC2(CCCC2)C1=O	x	1%	-14%	-21%	-5%	0%	x	x
CCCCOc1ccc(C(=O)N/C(=C\c2cccc([N+](=O)[O-])c2)C(=O)OCCC)cc1	u	0%	-4%	15%	6%	-7%	5.2%	4%
N#Cc1ccc(-c2csc(NC(=O)/C=C/c3cccs3)n2)cc1	u	u	u	7%	-8%	-13%	-2.9%	12%
O=C(COC(=O)c1ccc(Cl)nc1)Nc1ccc(S(=O)(=O)N2CCCC2)cc1	-4%	2%[46.1 µM]	-16%	0%	-35%	4%[46.1 µM]	-2.5%	-8%
O=C(CN1CCN(Cc2ccccc2)CC1)Nc1cccc(C(F)(F)F)c1	-4%	17%	-6%	4%	-1%	-3%	3.6%	3%
COc1ccc(C(=O)Nc2ccccc2C(=O)NCCN2CCOCC2)cc1OC	x	x	-17%	5%	1%	x	x	1%
O=C(CSc1nc(=O)n2cc(Cl)ccc2n1)Nc1ccc2c(c1)OCCO2	x	2%	-3%	7%	5%	u	x	x
Cc1ccc(-n2c(C)c3c(C)nnc(C)c3c2C)cc1N	x	14%	-17%	-6%	-3%	-5%	x	x
COc1ccc(S(=O)(=O)N2CCC(C(=O)NC3CC3)CC2)cc1Cl	-1%	-3%	-20%	6%	2%	18%	2.0%	-3%
COc1ccc(CCNC(=O)c2ccccc2C(=O)NCCc2ccc(OC)c(OC)c2)cc1OC	x	-18%	-27%	2%	x	u	x	x
Cc1cc(NC(=O)c2cnn3c(C(F)(F)F)cc(-c4ccc(Br)cc4)nc23)no1	u	-1%	4%	5%	0%	12%[14.3 µM]	-3.2%	-1%
CCc1ncc(CN2CCCC(C(=O)Nc3cccc(-c4cccc(C)c4)c3)C2)cn1 (stereo not given)	x	u	-14%	-24%	-4%	-16%	x	0%
Cn1nc(C(F)(F)F)c2cc(C(=O)Nc3ccc(F)cc3F)sc21	1%	4%	-15%	-4%	-9%	-18%	-8.9%	11%
O=S(=O)(c1ccc(Br)cc1)n1c(Cc2ccccc2)nc2ccccc21	-6%	-3%	27%	-15%	-15%	10%	1.1%	-1%
Cc1csc2nc(CCNS(=O)(=O)c3cccs3)cn12	-11%	-2%	59%[activator]	-2%	0%	x	-3.6%	-10%
CC[N+]1=CN(c2ccccc2)C(C)=CC1(C)C	-10%	11%	-20%	-9%	12%	-1%	0.2%	9%
CCCCC(C(=O)N/N=C/c1ccccn1)C(=O)N/N=C/c1ccccn1	x	-3%[46.1 µM]	-5%	3%	0%	-11%	x	0%
O=C(Nc1cc(C(=O)N2CCN(c3ccccc3)CC2)ccc1Cl)c1cccs1	x	8%	-9%	u	-4%	u	x	x
CCC(CC)C(=O)N1CC(=O)Nc2ccc(C)cc2C1c1ccccc1 (stereo not given)	x	x	-6%	11%	1%	x	x	3%
CCOC(=O)c1cccc(NC(=O)C2(S(=O)(=O)c3ccc(Cl)cc3)CC2)c1	-6%	-16%	-19%	5%	15%	-7%	-5.0%	4%
Cc1ccccc1N(Cc1ccccc1F)S(C)(=O)=O	-12%	-17%	-8%	-4%	-3%	3%	3.9%	-3%
O=C(NCC(c1ccco1)N1CCc2ccccc2C1)c1ccc(F)cc1 (stereo not given)	x	u	u	-3%	0%	-1%	x	x
CN(C)C(CNC(=O)CCNC(=O)c1ccc(Br)cc1)c1ccco1 (stereo not given)	x	5%	-4%	-2%	-1%	u	x	x
O=C(CSc1ncn[nH]1)NCc1ccccc1Cl	x	1%[46.1 µM]	22%	-5%	-2%	10%	x	-16%

New compounds follow:
SMILES	Cruzain inh noDet	Marburg entry inh	StopGo reporter	RE007 growth inh	SARS PLpro yeast	Lassa entry inh	Cruzain inh Det	NS1 function inh
C#CC(C)(CC)NC(=O)c1cc2c(n(-c3ccc(Cl)cc3)c1=O)CC(C)(C)CC2=O (stereo not given)	u	-10%[46.1 µM]	-12%	x	x	-6%[46.1 µM]	-2.9%	x
COc1cc(/C=N/NC(=S)NCCN2CCOCC2)cc(OC)c1O	2%	u	19%	-4%	5%	u	-10%	3%
COc1ccccc1NP1(=O)OCC(C)([N+](=O)[O-])CO1 (stereo not given)	x	u	-18%	-12%	x	1%	x	x
CCOc1cccc(C(=O)NC(=S)Nc2ccc3c(c2)OCCO3)c1	x	u	38%[activator]	3%	13%	x	x	x
COC(=O)c1cc(COC(=O)c2ccc3ccccc3n2)oc1C	-8%	-9%	-15%	14%	-4%	16%	-3.3%	-53%
O=C(Nc1ccc(S(=O)(=O)N2CCOCC2)cc1)c1ccc(CN2CCc3ccccc3C2)cc1	6%	2.5µM*	u	u	0%	10µM*	5.3%	4%
NS(=O)(=O)c1ccc(CCNC(=S)NC2CCCC2)cc1	x	x	-5%	1%	1%	x	x	3%
C=CCSc1nnc(NC(=O)C2=COCCO2)s1	x	u	51%[activator]	-3%	-7%	-30%	x	x
O=C(Nc1ccc(F)cc1)N1CCN(c2ccc3nnc(-c4ccc(F)cc4)n3n2)CC1	u	1%[46.1 µM]	u	10%	7%	x	-6.7%&-7.6%	-23%
Cc1ccc2[nH]c(=O)c(CN(CCCN(C)C)C(=O)Nc3cccc(Cl)c3)cc2c1	-5%	u	5%	8%	2%	u	3.2%	-2%
CCOC(=O)C1CCCN(c2ncnc3c2cnn3-c2ccc(C)c(Cl)c2)C1 (stereo not given)	-8%	x	33%[activator]	x	x	u	0.7%	x
Cc1cccc(NC(=O)Cc2ccc(NC3=NC4CS(=O)(=O)CC4S3)cc2)c1 (stereo not given)	x	x	-17%	-6%	-3%	x	x	-24%
Cc1cc(C)cc(N(CCC(=O)O)S(=O)(=O)c2ccc(Cl)cc2)c1	4%	-5%	-4%	20%	2%	7%	-2.4%	7%
COc1ccc(OCc2ccc(-c3nc(C#N)c(NCc4cccnc4)o3)o2)cc1	u	-12%[46.1 µM]	u	x	x	8%[46.1 µM]	-9.1%	x
COc1ccccc1N1CCN(C(=O)C(C)NC(=O)c2cccc([N+](=O)[O-])c2)CC1 (stereo not given)	x	3%[46.1 µM]	-28%	-21%	-3%	-4%	x	-10%
Cc1c2ccccc2nc2ccccc12	x	-4%	4%	u	x	17%	x	x
